Assay outcomes from PubChem BioAssay.
Ecoli rRNA inh: reduced GFP signal of wild-type E. coli, primary screen, bacterial rRNA inhibitor project, GFP/RFP fluorescence, OD600, single point. E. coli WT GFP vs humanized-ribosome RFP mutants, 24 h; hits give low values; DMSO median 0, no signal -100. GFP signal change (wild-type ribosome), % (no concentration beside the values). 350,000 compounds, 1.6% hits. AID 720706, 2013;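 active = significant combined selectivity score with lowered wild-type GFP, culture density cut under 30%, mutant RFP and density less affected; inactive = any of these conditions unmet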; also: one replicate is shown; some compounds called inactive have numbers as strong as hits
B2AR ag: beta2AR agonists driving receptor internalization, primary screen, cell-based, FAP fluorogen, flow cytometry; response, % (no concentration beside the values); 340,000 compounds, 0.43% hits; Am2.2-beta2AR cells; reference of the scale not given here;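 active = response above a set limit, near 3 SD of response in nonfluorescent compounds, cut at about 42% in these data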;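 also: stock transfer was 100 nL into about 11 µL; a reference agonist was the positive control; negative values mostly stem from fluorescent compounds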
Ecoli growth: E. coli growth inhibition, primary screen, OD600; AID 1053175, 2014; OD600 absorbance (no concentration beside the values); Escherichia coli growth, 23 h; hits give low values; 330,000 compounds, 0.21% hits;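 active = OD600 absorbance below the run mean of sample wells minus 3.6 SD, in any replicate, cut at about 0.56 in these data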;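 also: stock transfer was 300 nL into about 60 µL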
FGF22 binding: binders of human FGF22 protein, primary screen, FGF22 synaptogenesis inhibitor project, biophysical, thermal shift, single point | recombinant FGF22 thermal shift, SYPRO orange fluorescence; percent of sucrose octasulfate shift, DMSO zero | calls only at 9.99 µM | 340,000 compounds, 1.5% hits;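 active = melting point raised past a set limit in the mean and every replicate; three in four hits are not shown here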
Target sequence (Q9HCT0 whole entry, looked up): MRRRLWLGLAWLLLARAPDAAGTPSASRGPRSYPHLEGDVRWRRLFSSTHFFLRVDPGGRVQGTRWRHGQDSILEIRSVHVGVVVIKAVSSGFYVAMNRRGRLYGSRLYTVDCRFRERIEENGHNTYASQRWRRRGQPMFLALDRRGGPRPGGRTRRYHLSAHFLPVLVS
UCH37 inh: inhibitors of human UCH37 deubiquitinase, primary screen, biochemical, Ub-AMC cleavage, fluorescence; purified proteasome/UCH37; inhibition, % (no concentration beside the values); 330,000 compounds, 0.33% hits; Ubiquitin carboxyl-terminal hydrolase isozyme L5 (Homo sapiens), Q9Y5K5; AID 588478, 2011;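 active = mean of two replicates above 20%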;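 also: 0% = compound-free wells with enzyme and 100% = wells lacking proteasome; stock transfer was 100 nL into about 20 µL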
Target sequence (Q9Y5K5 whole entry, looked up): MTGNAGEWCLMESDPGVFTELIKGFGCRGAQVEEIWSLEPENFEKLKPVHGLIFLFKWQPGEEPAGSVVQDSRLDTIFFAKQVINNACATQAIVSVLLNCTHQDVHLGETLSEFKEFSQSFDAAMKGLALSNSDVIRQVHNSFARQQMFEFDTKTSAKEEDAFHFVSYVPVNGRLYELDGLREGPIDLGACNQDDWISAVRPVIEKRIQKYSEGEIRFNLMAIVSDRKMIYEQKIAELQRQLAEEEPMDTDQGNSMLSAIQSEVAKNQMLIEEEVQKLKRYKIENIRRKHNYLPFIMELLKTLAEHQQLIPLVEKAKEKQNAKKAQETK
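Material: human UCH37 enzyme supplied as purified proteasome complex. Measure: % inhibition of Ub-AMC cleavage fluorescence. Medium: pH 7.4 Tris-HCl (50 mM) with ovalbumin, ATP-MgCl2, DTT. Times: 30 min preincubation with enzyme, 25 min cleavage at room temperature. Detection: AMC fluorescence intensity at 355/460 nm.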
HNF4A DNA FP: change in binding of human HNF4A to DNA, primary screen, biochemical, fluorescence polarization, FITC-DNA | 1 h | AID 1224865, 2016 | 360,000 compounds, 0.3% hits | Hepatocyte nuclear factor 4-alpha (Homo sapiens), P41235 | activity change, % at 10 µM; in the data active = activity change above about 30%, passing the limit was not always enough;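 also: controls were the assay level and a saturating level of protein; the project sought stronger binding though the title names inhibitors; some compounds called inactive have numbers as strong as hits; positive values seem to mean higher polarization but the record does not say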
ALR H2O2 inh: inhibitors of human ALR sulfhydryl oxidase, primary screen, biochemical, H2O2 detection, HRP-luminol luminescence, single point; inhibition, % (test concentration not listed); FAD-linked sulfhydryl oxidase ALR (Homo sapiens), P55789; 290,000 compounds, 3.8% hits; purified ALR, DTT oxidation;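 active = mean and each replicate at 75% or more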;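 also: stock transfer was 7.5 nL into about 7.5 µL; 0% = neutral wells and 100% = wells with inactivated enzyme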
Target sequence (P55789 whole entry, looked up): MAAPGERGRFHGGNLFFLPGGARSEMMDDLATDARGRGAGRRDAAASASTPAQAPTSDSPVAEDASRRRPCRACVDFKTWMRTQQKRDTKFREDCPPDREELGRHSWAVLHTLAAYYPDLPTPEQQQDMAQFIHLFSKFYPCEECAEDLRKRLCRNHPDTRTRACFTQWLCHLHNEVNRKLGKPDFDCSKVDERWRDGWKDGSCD
Ecoli rRNA inh OD600: recorded beside Ecoli rRNA inh, whose call it bears; OD600 change, %; measured here: OD600 growth;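 optical density of the mix in the first replicate; 0 = DMSO median and -100 = no signal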
Ecoli rRNA inh RFP: further read-out of Ecoli rRNA inh, marked with its call; RFP signal change, %; measured here: RFP humanized mutant strains;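 first replicate; 0 = DMSO median and -100 = no signal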
Numbers without * were called inactive; i = inactive; · = not tested or not shown. The list is partial; the hit share may differ from the screen's.

Preview (three entries):
Screens in order – Ecoli rRNA inh	Ecoli rRNA inh OD600	Ecoli rRNA inh RFP	B2AR ag	Ecoli growth	FGF22 binding	UCH37 inh	HNF4A DNA FP	ALR H2O2 inh
1: CCC(C)C(NC(=O)C(C)NC(=O)CNC(=O)CNC(=O)OCc1ccccc1)C(=O)OC (stereo unspecified)
    ·	·	·	-3	0.64	·	-6.7	-1.7	-4
2: Cc1cccc(NC(=O)CC2c3ccccc3Oc3ccccc32)c1
    14	6	5.0	4	0.7	i	6.1	1.2	-1
3: N#Cc1ccccc1S(=O)(=O)N1CCN(C(=O)C2CC(=O)N(c3ccc4c(c3)OCCO4)C2)CC1 (stereo unspecified)
    0	6	0.5	-10	0.7	i	1.4	-3.9	-2

Results (from the top)
Screens in order – Ecoli rRNA inh	Ecoli rRNA inh OD600	Ecoli rRNA inh RFP	B2AR ag	Ecoli growth	FGF22 binding	UCH37 inh	HNF4A DNA FP	ALR H2O2 inh
1: CCC(C)C(NC(=O)C(C)NC(=O)CNC(=O)CNC(=O)OCc1ccccc1)C(=O)OC (stereo unspecified)
    ·	·	·	-3	0.64	·	-6.7	-1.7	-4
2: Cc1cccc(NC(=O)CC2c3ccccc3Oc3ccccc32)c1
    14	6	5.0	4	0.7	i	6.1	1.2	-1
3: N#Cc1ccccc1S(=O)(=O)N1CCN(C(=O)C2CC(=O)N(c3ccc4c(c3)OCCO4)C2)CC1 (stereo unspecified)
    0	6	0.5	-10	0.7	i	1.4	-3.9	-2
4: CCOC(=O)c1c(O)cc(OC)cc1CCc1ccccc1
    -3	1	0.3	-7	0.71	i	-2.2	2.1	·
5: CCc1cc2ccccc2nc1Cl
    1	9	-0.9	-2	0.66	·	0.1	-3.0	-3
6: OC(COc1ccc(CNCCc2ccccc2F)cc1)CN1CCCCC1 (stereo unspecified)
    7	4	7.6	14	0.63	i	-1.4	-3.0	-6
7: CCN=C1SC(CC(N)=O)C(=O)N1CC (stereo unspecified)
    13	5	-1.6	4	0.68	i	0.8	-2.9	-16
8: C=CCn1c(-c2cccc(OC)c2)nc2nc3ccccc3nc21
    ·	·	·	-14	0.7	·	3.5	-0.6	2
9: Cc1ccc(-c2cn(-c3ccccc3)c(SCC(=O)NC3CCS(=O)(=O)C3)n2)cc1C (stereo unspecified)
    -2	-4	15	-2	0.71	i	-1.0	0.0	0
10: COC(=O)c1ccc2c(c1)NC(=O)C(N1CCCCC1)S2 (stereo unspecified)
    ·	·	·	0	0.73	·	5.3	0.4	-6
11: O=C(OC(C(=O)NC1CCCCC1)c1ccccc1)c1ccco1 (stereo unspecified)
    ·	·	·	-1	0.7	·	-0.4	-0.7	0
12: O=C(CCCOc1ccccc1)N1CCN(c2ccccc2)CC1
    ·	·	·	-3	0.72	·	3.7	-1.0	72
13: O=C(N/N=C/c1ccncc1)c1ccc(-n2cccc2)cc1
    5	3	-7.4	-13	·	i	·	1.5	-6
14: COc1ccc(/C=C/C(=O)NC(=S)N2CCCCC2)cc1OC
    -4	12	1.3	-8	0.71	i	-9.3	-3.8	2
15: O=C(CN1C(=O)C(=O)N(C2CCCC2)C1=O)Nc1ccc([N+](=O)[O-])cc1
    4	6	-0.9	1	0.68	i	7.1	-0.9	·
16: COc1ccc(NC(=S)N/N=C2/CCCc3c(C)cc(C)cc32)cc1
    ·	·	·	-4	·	·	·	0.0	-4
17: O=C(c1ccco1)N1CCN(C(c2cccs2)c2nnnn2C2CCCC2)CC1 (stereo unspecified)
    ·	·	·	-13	0.69	·	4.9	-1.3	·
18: Cc1occc1-c1nnc(SCC(=O)Nc2ccc3c(c2)OCO3)n1CC1CCCO1 (stereo unspecified)
    ·	·	·	8	0.69	·	6.6	-1.2	·
19: CC1CCC/C(=C\c2ccc(O)cc2)C1=O (stereo unspecified)
    ·	·	·	-2	0.61	i	9.6	-2.7	92*
20: CN1CCC(=NNC(=O)COc2ccc(Cl)cc2)CC1
    14	3	-1.9	4	0.68	i	0.5	-2.1	8
21: Cc1noc(C)c1COc1cccc(C(=O)NCc2ccccc2Cl)c1
    ·	·	·	1	0.66	·	2.0	1.3	-2
22: CCOc1ccc(NC(=O)COC(=O)CN2CCCCCC2=O)cc1
    7	18	3.9	-3	0.72	i	-0.4	-6.1	3
23: O=S(=O)(NCc1ccccc1)c1ccc(F)cc1Br
    -8	-2	-10	0	0.69	i	-1.8	2.4	1
24: c1ccc(-c2nnc(SCc3ccncc3)o2)cc1
    10	13	-2.5	·	·	i	·	0.2	·
25: O=C(O)c1ccccc1N=Nc1c(O)[nH]c2ccc([N+](=O)[O-])cc12
    ·	·	·	7	0.66	·	13	-7.7	-4
26: Cc1cccc(NC(=O)CSc2nc3ccccc3nc2N2CCCC2)c1
    -4	-25	-4.2	-3	0.74	i	-5.0	-0.6	·
27: O=[N+]([O-])c1cc([N+](=O)[O-])c2nonc2c1Nc1ccc(O)cc1
    18	18	3.1	15	0.65	i	15	13	99*
28: CC(C)[C@H](N)c1nnc(SC/C=C/c2ccccc2)o1
    ·	·	·	3	0.66	·	1.8	3.2	6
29: C=CC1C(N2CCOCC2)C(C)(C)S1(=O)=O (stereo unspecified)
    ·	·	·	4	0.72	·	0.9	-0.7	·
30: COc1cc2c(cc1OC)C(C(=O)N1CCN(c3ccccn3)CC1)C(c1cccs1)N(C)C2=O (stereo unspecified)
    ·	·	·	-5	0.69	·	-1.0	2.0	-5
31: COc1ccc(NC(=O)CNc2cc(C)ccc2C)cc1S(=O)(=O)N1CCOCC1
    3	13	3.5	8	0.66	i	0.8	0.4	·
32: COc1ccc(CN2CCC(Oc3ccc(C(=O)NCc4ccccn4)cc3)CC2)c(F)c1
    3	4	2.8	8	0.66	i	-0.4	2.3	-23
33: Cc1cc(S(=O)(=O)NCC2CC2)c(Cl)cc1Cl
    -12	-6	-2.6	-9	0.68	i	3.1	2.0	18
34: CC(=O)NC1(c2ccccc2)CCN(CC(=O)N2CCC(C)CC2)CC1
    18	12	0.3	3	0.66	i	1.2	-3.8	-9
35: Cc1ccc(C(=O)NN(CCC#N)C2=NS(=O)(=O)c3ccccc32)cc1
    11	11	1.0	-6	0.73	i	6.6	1.9	-14
36: Cn1cc(-c2nnnn2-c2ccc(Cl)cc2)c(=O)c2ccccc21
    ·	·	·	-14	0.71	·	2.8	1.4	-5
37: Cc1ccc(S(=O)(=O)N2CCC(=O)N(C(COC(=O)Nc3ccccc3)Cc3ccccc3)CC2)cc1 (stereo unspecified)
    -8	1	-13	1	0.69	i	3.6	-5.3	-5
38: CN(C)C(=O)c1cc(C(=O)c2ccc(F)cc2C(F)(F)F)c[nH]1
    -12	0	-2.1	-13	0.67	i	1.7	12	5
39: CCOc1ccc(C(=O)Nc2cc(=O)n(C)c(=O)n2C)cc1
    14	12	1.6	1	0.72	i	5.6	2.8	·
40: Cc1cc(C)nc(Nc2nc(C)c3cc4c(cc3n2)OCO4)n1
    ·	·	·	12	0.68	·	-87	-29	·
41: Cc1nc2sccn2c(=O)c1S(=O)(=O)NCC1CCN(Cc2ccccc2Cl)CC1
    3	7	-1.0	3	0.62	i	0.7	-7.2	0
42: CC1CC(=O)N(C)c2ccc([N+](=O)[O-])cc2N1 (stereo unspecified)
    ·	·	·	-4	0.66	·	8.3	-0.7	-2
43: CC(C)(C)CC(=O)Nc1nnc(SCC(=O)NC2CCCC2)s1
    1	-13	-2.2	-2	0.69	i	4.4	-1.9	-15
44: Nc1nc(Nc2ccccc2F)nc(NCc2ccccc2)c1[N+](=O)[O-]
    ·	·	·	2	0.66	i	3.3	-2.6	11
45: N#Cc1nc(COc2ccc(F)cc2)oc1N1CCCC1
    ·	·	·	3	0.72	·	6.7	-1.6	-10
46: COC(=O)c1cn(NC(=O)c2ccc(OC)c(OC)c2)c(=O)c2ccccc12
    ·	·	·	10	0.73	·	-1.0	7.7	·
47: COc1ccc(-c2cnc3ncnn3c2N)cc1
    6	1	-0.4	-15	0.64	i	2.0	-3.8	-1
48: CCCCNC(=O)COC(=O)c1ccccc1F
    6	4	-1.7	8	0.66	i	5.4	0.3	-4
49: CCOC(=O)C1CCCN(C(=O)c2ccc(NS(=O)(=O)c3ccc4[nH]c(=O)[nH]c4c3)cc2)C1 (stereo unspecified)
    7	15	2.0	-5	0.67	i	1.5	0.8	·
50: Cn1nc(C(C)(C)C)cc1N1C(=O)CCC1(C)C(=O)NC1CCCC1 (stereo unspecified)
    9	8	2.7	·	·	i	·	3.2	·

Next structures follow:
Screens in order – Ecoli rRNA inh	Ecoli rRNA inh OD600	Ecoli rRNA inh RFP	B2AR ag	Ecoli growth	FGF22 binding	UCH37 inh	HNF4A DNA FP	ALR H2O2 inh
51: O=C(Cc1csc(N2CCOCC2)n1)N/N=C/c1ccc(F)cc1
    ·	·	·	-1	·	·	·	-0.6	-8
52: COc1ccc(NC(=O)NCCCCc2ccccc2)cc1
    6	5	-0.9	-6	0.74	i	5.3	2.0	-5
53: C#CCn1c(=O)c2c(ncn2C)n(C)c1=O
    0	4	-1.1	-4	0.72	i	-1.0	4.5	-4
54: Cc1cc(Br)ccc1OCCNCc1ccccc1
    -58	-76	-19	7	0.55	·	7.3	0.7	-4
55: CC/C(O)=C1\C(=O)CCCC1=NCCc1c(C)[nH]c2ccc(C)cc12
    1	9	-0.2	-4	0.72	i	5.9	-0.3	51
56: O=C(CSc1nc2ccccc2o1)N1c2ccccc2Sc2ccccc21
    -3	-9	-1.7	10	0.75	i	2.3	-0.7	-2
57: CCOC(=O)c1nc(S(C)(=O)=O)ncc1Cl
    -27*	-8.9*	-9.2*	21	0.67	i	4.8	-3.6	58
58: Cc1ccc(C)c(OCC(=O)NC2CCCCCC2)c1
    -21	-43	-1.4	-5	·	i	·	-0.2	-9
59: Cc1c(C(=O)O)cccc1N1C(=O)Nc2ccccc2N1O
    ·	·	·	0	0.73	·	1.1	0.7	17
60: C=CSc1sc(Cl)c(N(CC)CC)c1[N+](=O)[O-]
    8	7	-1.6	11	0.68	i	1.7	-2.6	-17
